Compound activity (PubChem)
rRNA inh HTS – inhibitors of bacterial rRNA selective over humanized ribosomes. E. coli WT GFP vs humanized-ribosome RFP mutants, fluorescence, 24 h; hits give low values; DMSO median 0, no signal -100. GFP signal change (wild-type ribosome), % (concentration not given with the values). actives 1.6% (n = 350,000). AID 720706;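 active = significant combined selectivity score with lowered wild-type GFP, culture density cut under 30%, mutant RFP and density less affected; inactive = any of these conditions unmet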; note: one replicate is shown; some compounds called inactive have numbers as strong as hits
ALR H2O2 inh – inhibitors of human sulfhydryl oxidase ALR. P55789. purified ALR, DTT oxidation, H2O2 HRP-luminol luminescence. inhibition, % (no concentration beside the values). actives 3.8% (n = 290,000);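 active = mean and each replicate at 75% or more; inconclusive = only one of the two met; inactive = neither met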;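 note: stock transfer was 7.5 nL into about 7.5 µL; 0% = neutral wells and 100% = wells with inactivated enzyme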
Target sequence (P55789 whole entry, looked up): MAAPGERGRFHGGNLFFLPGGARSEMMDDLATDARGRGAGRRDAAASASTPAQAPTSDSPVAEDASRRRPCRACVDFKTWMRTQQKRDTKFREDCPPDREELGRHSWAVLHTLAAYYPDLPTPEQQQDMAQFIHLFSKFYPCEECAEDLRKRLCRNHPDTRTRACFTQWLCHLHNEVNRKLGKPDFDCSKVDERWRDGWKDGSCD
Calb FLC – affects C. albicans growth with fluconazole. AID 1979. growth inhibition, % (no concentration beside the values). actives 0.57% (n = 300,000). C. albicans CaCi-2 (fluconazole-resistant clinical isolate) + fluconazole, Alamar Blue growth, 48 h;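 active = most replicates above 75%; inconclusive = exactly half above 75%; inactive = most below 75%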;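 note: all wells also contain fluconazole at 8 µg/ml as a sub-toxic cotreatment; 0% = median of DMSO wells and 100% = median of geldanamycin control wells; wells of about 8 µL received 7.5 nL stock; the first replicate is given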
B2AR ag – human beta-2 adrenergic receptor agonism by FAP; P07550; Am2.2-beta2AR cells, FAP receptor internalization, flow cytometry; reference of the scale not given here; response, % (concentration not given with the values); actives 0.43% (n = 340,000); AID 504454;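 active = response above a set limit, near 3 SD of response in nonfluorescent compounds, cut at about 42% in these data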;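 note: stock transfer was 100 nL into about 11 µL; a reference agonist was the positive control; negative values mostly stem from fluorescent compounds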
Target sequence (P07550 whole entry, looked up): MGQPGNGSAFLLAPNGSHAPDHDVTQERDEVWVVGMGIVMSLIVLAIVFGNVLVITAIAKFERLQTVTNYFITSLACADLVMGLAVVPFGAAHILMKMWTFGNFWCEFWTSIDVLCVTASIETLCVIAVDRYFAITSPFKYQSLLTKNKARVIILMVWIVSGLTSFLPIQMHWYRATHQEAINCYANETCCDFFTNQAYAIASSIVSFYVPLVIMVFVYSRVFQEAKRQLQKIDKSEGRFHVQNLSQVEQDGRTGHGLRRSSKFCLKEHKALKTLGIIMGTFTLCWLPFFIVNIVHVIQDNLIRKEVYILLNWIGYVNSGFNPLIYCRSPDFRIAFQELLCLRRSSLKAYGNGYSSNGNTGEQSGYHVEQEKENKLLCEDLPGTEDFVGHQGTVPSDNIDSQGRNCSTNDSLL
Beta cell apopt – blocks beta cell apoptosis; INS-1E cytokine-induced death, ATP luminescence, 48 h; percent of positive-control rescue, neutral wells zero; protection from apoptosis, % (no concentration beside the values); actives 0.8% (n = 300,000);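 active = all replicates at 75% or more, or half of them and the mean; inconclusive = half reach 75% but not the mean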;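 note: 0% = cytokine-treated negative control wells and 100% = positive control rescue; higher means more ATP so stronger rescue from cytokine killing; wells of about 40 µL received 100 nL stock; the first replicate is given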
T cruzi repl – blocks replication of Trypanosoma cruzi; T. cruzi beta-gal in NIH3T3, luminescence, 90 h; inhibition, % (no concentration beside the values); actives 1.4% (n = 300,000); AID 1885;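 active = mean inhibition across valid replicates above about 55%, limit read from the data; inconclusive = mean below that limit but half or more replicates reach it; inactive = mean below it, under half of replicates reach it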;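 note: signal also drops with host cell toxicity which is not excluded here; 0% = plate median of DMSO wells and 100% = zero luminescence signal; higher percent means less beta-gal luminescence so fewer parasites; stock transfer was 50 nL into about 50 µL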
Bfl-1 A1 inh – inhibitors of the anti-apoptotic protein A1, read as caspase activation; MEF A1-2A-BIM cells, Caspase-Glo 3/7 luminescence, 3 h; percent of clofoctol response, vehicle zero; caspase activation, % (no concentration beside the values); actives 0.066% (n = 330,000); AID 2462;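 active = over half of replicate activation scores above 10%, or exactly half above 10 with the replicate mean above 10; inconclusive = replicate mean below 10 yet half the replicates above 10; inactive = over half of replicates below 10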;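 note: wells of about 30 µL received 50 nL stock; many hits fall short of the cut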
LANA-H2B inh – blocks KSHV LANA binding to histone H2A/H2B | cell-free LANA-H2A/H2B peptide, fluorescence polarization | AID 2629 | inhibition, % (test concentration not listed) | Q9QR71 | actives 0.6% (n = 320,000); in the data active = inhibition mostly above about 10%, no sharp cut-off; inactive = mostly below about 6.7%;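 note: stock transfer was 7.5 nL into about 10 µL; 0% = median of vehicle wells and 100% = median of positive control wells; one replicate is shown; the record names a cut of 25% in any replicate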
rRNA inh HTS OD600 – also measured in rRNA inh HTS; calls as there; OD600 change, %; measured here: OD600 growth;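 optical density of the mix in the first replicate; 0 = DMSO median and -100 = no signal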
rRNA inh HTS RFP – recorded beside rRNA inh HTS, whose call it bears; RFP signal change, %; measured here: RFP humanized mutant strains;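 first replicate; 0 = DMSO median and -100 = no signal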
An asterisk follows results filed as active; ? = inconclusive; / = no result given.

SMILES	rRNA inh HTS	rRNA inh HTS OD600	rRNA inh HTS RFP	ALR H2O2 inh	Calb FLC	B2AR ag	Beta cell apopt	T cruzi repl	Bfl-1 A1 inh	LANA-H2B inh
Nc1nc(-c2ccccc2)cc(C(F)(F)F)n1	/	/	/	-7	-22	1	-5	-23	-1.8	-4.5
O=S(=O)(Nc1ccc(-c2ccc3nncn3n2)cc1)c1ccc(Cl)s1	3	-3	2.0	-2	-1	1	-5	-5	0.9	-4.8
COc1ccc(C2C3=C(CCCC3=O)Nc3c(-c4ccccc4)c(C)nn32)cc1 (stereo unspecified)	/	/	/	13	7	11	-1	23	1.0	-0.1
COc1cc2c(cc1OC)N1C(=O)CC(OCC(=O)O)C3C4CC5(CCN5C(=O)C4=O)C2C31 (stereo unspecified)	16	18	-2.0	-7	-7	-1	/	-5	-0.1	-1.7
CC(=O)c1cccc(NC(=O)CCC(=O)c2ccc(F)cc2)c1	-3	4	0.8	/	4	-11	/	-10	/	/
CCOC(=O)C1(CCOc2ccccc2)CCN(Cc2ccc(C)o2)CC1	6	3	2.4	/	-9	-6	10	27	0.7	4.1
O=C(NC(=S)Nc1ccccc1C(=O)O)c1ccc(-c2ccc(Br)cc2)o1	-12	-11	-0.4	10	1	-2	/	62*	-0.7	-11
Cc1cccc(NS(=O)(=O)c2ccc(Br)s2)n1	/	/	/	-17	0	2	-4	-6	0.1	-3.4
Cc1nnc2ccc(-c3ccc(NS(=O)(=O)c4ccccc4F)cc3)nn12	9	1	1.1	-10	3	21	3	10	0.0	0.0
O=C(COC(=O)Cn1[nH]c(=O)c2ccccc2c1=O)Nc1ccc2c(c1)OCO2	/	/	/	/	-9	-8	-7	-8	1.2	-12
COCCNCCOc1ccc(C)cc1[N+](=O)[O-]	9	3	2.3	5	-2	5	-3	-2	0.3	-0.5
COc1cc(NC(=S)Nc2ccc3c(c2)OCCO3)cc(OC)c1OC	11	4	0.9	39	-6	-1	-2	-10	2.5	5.3
CC(C)CN1CCN(Cc2cnc(N3CCOCC3)s2)CC1CCO (stereo unspecified)	18	5	-0.3	/	-18	4	-4	-5	0.3	-4.2
CCOC(=O)c1cnn(-c2ccccc2)c1-n1cccc1C(=O)C(=O)N(CC)CC	1	-4	-3.3	-13	-4	3	0	-8	-0.2	-0.3
CCOC(=O)C1C(=O)Nc2nc3ccccc3n2C1C(C)C (stereo unspecified)	-1	10	-2.3	4	44	-1	0	-17	-0.7	-7.9
CC(=O)OC(C(=O)NC1CCCCC1)c1ccccc1F (stereo unspecified)	20	16	4.7	-3	-16	-1	-1	-10	-0.2	4.3
O=C(CCc1nnc2n(Cc3ccc(Cl)cc3)c(=O)c3ccccc3n12)N1CCN(c2ccccn2)CC1	/	/	/	-7	-20	3	9	22	0.6	-4.2
COC(=O)c1ccccc1S(=O)(=O)N1CCC(C(=O)N(C)CCOc2ccccc2)CC1	-5	-4	-0.2	-47	-3	1	5	12	-0.2	-11
COc1ccc(/C=N/N2CCN(Cc3ccccc3)CC2)cc1	10	5	1.1	35	-3	-4	?	9	1.0	-0.6
Oc1c(C(c2ccc(Cl)cc2)N2CCCC2)cc(Cl)c2cccnc12 (stereo unspecified)	-50	-76	-12	1	99*	16	16	70*	2.0	3.2
COc1ccc(/C=C2\Oc3cc(OCC(=O)N4CCC[C@H]4C(=O)O)ccc3C2=O)c(OC)c1OC	-3	1	-7.5	/	-5	2	-12	1	0.0	2.0
Cc1cc(C(=O)CS(=O)(=O)c2ccc(F)cc2)cc(C)c1O	0	-1	2.5	/	9	-9	-2	14	-1.4	0.7
CC(C)c1ccccc1NC(=O)Cn1c(/C=C/c2ccccc2)nc2ccccc21	/	/	/	-3	7	/	68	-5	2.8	-1.9
Cc1ccc(CNC(=O)C2CCC(=O)N2Cc2ccccc2Cl)cc1 (stereo unspecified)	4	6	7.4	/	-12	1	/	-7	0.8	-3.8
NC(=O)C1CCN(C(=O)c2cc3c(s2)CCCCC3)CC1	3	4	-3.6	-4	/	-9	-1	/	-0.6	5.6
O=C1CN(C(=O)c2cc3ccccc3oc2=O)C(c2ccc(F)cc2)c2cc(Br)ccc2N1 (stereo unspecified)	0	-3	3.8	/	17	-23	4	-3	-0.3	-1.4
O=[N+]([O-])c1ccc(Oc2ccc(-c3nnco3)cc2)c(Cl)c1	-3	4	-1.9	0	-3	-5	-5	18	0.9	-2.6
O=C(NCCS(=O)(=O)NCC1CCCO1)c1ccccc1 (stereo unspecified)	7	5	-0.1	-6	1	5	-1	-6	-0.3	5.0
Cc1csc(NC(=O)C2CC(=O)N(Cc3ccco3)C2)n1 (stereo unspecified)	4	0	-3.5	-6	12	-7	-3	1	0.5	1.9
Cc1ccc(N2C(=O)CS/C2=C(\C(Cl)=C(Cl)Cl)[N+](=O)[O-])cc1	-5	-1	-0.8	98*	-4	12	2	-13	0.3	-3.7

Laid out differently: results already given.
Structure,rRNA inh HTS,rRNA inh HTS OD600,rRNA inh HTS RFP,ALR H2O2 inh,Calb FLC,B2AR ag,Beta cell apopt,T cruzi repl,Bfl-1 A1 inh,LANA-H2B inh
CC(C)c1ccccc1NC(=O)Cn1c(/C=C/c2ccccc2)nc2ccccc21,/,/,/,-3,7,/,68,-5,2.8,-1.9
O=C(NCCS(=O)(=O)NCC1CCCO1)c1ccccc1 (stereo unspecified),7,5,-0.1,-6,1,5,-1,-6,-0.3,5.0

(continued)
SMILES	rRNA inh HTS	rRNA inh HTS OD600	rRNA inh HTS RFP	ALR H2O2 inh	Calb FLC	B2AR ag	Beta cell apopt	T cruzi repl	Bfl-1 A1 inh	LANA-H2B inh
COc1ccc(C)c2sc(N(CCN(C)C)C(=O)c3cccc(N4C(=O)CCC4=O)c3)nc12	5	6	-1.3	/	-6	7	/	-2	0.7	0.1
CC(C)(CNC(=O)c1cccc(NS(=O)(=O)c2ccc(Br)cc2)c1)N1CCOCC1	5	0	0.9	-1	?	3	3	1	0.8	-11
Cc1noc(C)c1C(=O)Nc1ccc(-n2ccc(C(F)(F)F)n2)cc1	/	/	/	-2	-7	-2	12	-4	0.5	1.8
Cc1ccc(S(=O)(=O)N2CCN(C(=O)c3ccccc3)CC2)c(C)c1NS(C)(=O)=O	0	-2	-2.2	-21	-1	-1	3	-4	0.5	2.4
Cn1ncc([N+](=O)[O-])c1C(=O)N/N=C/c1c[nH]c2ccccc12	7	8	-1.2	7	7	0	-8	6	0.3	5.3
CCc1ccc(NC(=O)CCc2nc3ccccc3[nH]2)cc1	5	7	1.3	40	-6	-9	-1	-8	-0.1	3.3
O=C(Nc1nc2ccc(S(=O)(=O)N3CCCC3)cc2s1)c1cccs1	/	/	/	/	3	3	-5	6	-2.6	2.2
O=C(NCCOc1ccccc1)C1CCC(=O)N(CCCN2CCOCC2)C1 (stereo unspecified)	5	7	0.2	-4	-1	-7	-5	-11	0.5	2.0
O=C(CSc1nnc(C2CC2)n1-c1ccccc1)NCCN1C(=O)CSC1=O	10	4	0.1	8	-6	-3	1	-3	-0.1	4.8
O=C(CCC(=O)OCCCC(F)(F)C(F)(F)F)NC1CCCCC1	-2	-7	-0.6	1	2	5	-8	-19	1.1	-1.5
CCn1cc(CN2CCC(n3nccc3NC(=O)CCOc3ccccc3)CC2)cn1	8	-5	1.5	-5	5	2	3	2	0.2	-1.6
CCOC(=O)C1C(=O)NC(N2CCN(Cc3ccccc3)CC2)=NC1c1ccco1 (stereo unspecified)	/	/	/	-12	-1	7	6	-8	0.3	-7.8
CCCCNC(=S)N/N=C/c1ccc(C#N)cc1	-40	-56	-7.8	2	30	-14	-4	-4	-1.1	-9.0
CC(C)C(NC(=S)NCc1ccccc1)C(=O)O (stereo unspecified)	/	/	/	4	-11	-7	-11	-4	1.3	2.8
Cc1ccc(N2C(=O)CCC2(C#N)c2ccccc2)cc1 (stereo unspecified)	6	1	-1.7	1	20	2	0	4	0.5	0.2
O=[N+]([O-])c1ccccc1CSc1ccccn1	4	-1	1.0	-2	7	-11	1	2	1.7	10
O=C1C=C(O)C(n2cncn2)C(c2cc(F)ccc2F)C1 (stereo unspecified)	22	21	6.3	1	15	3	/	-11	-0.2	1.1
CN1CCCC(OC(=O)COc2ccc(Br)cc2)C1 (stereo unspecified)	20	14	1.2	-3	5	-4	-2	-7	0.0	-2.5
O=C(N/N=C/C1CC=CCC1)c1ccccc1O (stereo unspecified)	/	/	/	5	-4	3	5	-22	-0.2	6.0
CN1CCN(CCCNC(=O)c2ccc(/C=C3\Sc4ccccc4N(Cc4ccccc4F)C3=O)cc2)CC1	-58	-83	-27	/	30	88*	/	69*	/	/
O=c1c2c3c(sc2ncn1-n1cccc1)CCCCC3	/	/	/	7	-9	-11	-27	5	-0.4	0.8
C=CCS(=O)(=O)N1CCC(CCOc2ccccc2)(C(=O)OCC)CC1	-14	-34	-3.9	-8	2	5	-5	-5	-0.9	1.4
Cc1ccc(Cc2cnc(NC(=O)/C(C#N)=C/c3ccc(-c4ccc([N+](=O)[O-])cc4)o3)s2)cc1	9	7	31	-6	-6	1	2	-20	-0.1	3.1
Cc1cc(C)n2nc(CNS(=O)(=O)c3ccc(C)c(C)c3)nc2n1	9	11	-1.8	-12	11	6	0	-6	0.5	3.4
CCOc1ccc(-n2c(=O)c3c4c(sc3n(CC(=O)NCCCOC)c2=O)CCCCC4)cc1	9	12	-1.3	-21	-5	-7	2	52	-0.4	0.8
COc1cc(OC)nc(Oc2cc(C=O)ccc2OC)n1	2	7	-1.0	-1	-1	3	0	-6	0.7	0.2
CC(=O)Nc1ccc(CN2CCN(C3CCCCC3)C(CCO)C2)cc1 (stereo unspecified)	12	12	-3.5	-1	2	-6	-4	-8	-0.2	-0.2
O=C(N/N=C/C(Br)=C/c1ccccc1)c1n[nH]c2c1CCC2	/	/	/	-3	8	6	-12	-24	-0.1	0.2
O=C(Cc1n[nH]c(=O)[nH]c1=O)N/N=C/c1ccccc1O	13	10	4.3	11	10	-2	-7	-19	-1.0	-1.4
O=C(O)c1cccc(N/C(=N\S(=O)(=O)c2ccccc2)c2ccccc2)c1	16	13	1.5	2	-5	-2	-3	-9	-0.4	5.1
O=C(O/N=C/c1ccc2c(c1)OCO2)c1ccccc1Cl	/	/	/	/	8	/	1	16	-6.9	3.7
CCN1C(=O)[C@@H]2[C@@H](c3ccc(SC4CCCCC4)c(OC)c3)N3CCCC[C@@]3(C(=O)OC)[C@@H]2C1=O	22	7	9.6	9	/	13	2	/	-0.1	-2.0
NC(=S)N/N=C/c1cccc(/C=N/NC(N)=S)c1	5	9	-1.5	-6	29	9	4	-4	0.6	0.5
O=S(=O)(c1cccs1)N1CCN(c2cccc(Cl)c2)CC1	-4	-11	4.9	-4	-6	6	-1	18	0.3	5.2
CCOC(=O)N/N=C1\CC(C)S(=O)(=O)c2ccc(Cl)cc21 (stereo unspecified)	8	4	1.0	2	0	-9	-2	-7	0.2	-3.1
CC(C)(C)c1cc(C(=O)Nc2cccnc2)cc(C(=O)Nc2cccnc2)c1	2	-8	6.7	-19	6	-9	6	-5	-0.8	-1.6

A portion of the library. The share of hits here may be higher or lower than overall.
